Compound activity deposited in PubChem by National Center for Advancing Translational Sciences (NCATS).
miR-21 FLuc: miR-21 reporter, rising signal | HeLa miR-21 FLuc reporter, luciferase, 48 h | Potency, µM (series often up to 38.3 µM), inactives show at the highest dose reporter change, positive = more light | 340,000 tested, under 10 active; active = well fitted rising curve with a large enough effect; inconclusive = small, poorly fitted or top-dose-only effect; inactive = no such curve, though single readings can be large or run the other way;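 note: % of control where 0% means no effect; miR-21 action dims this reporter so a rising signal means less miR-21 action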
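HeLa cells stably expressing CMV-driven firefly luciferase with a downstream miR-21 binding sequence, endogenously expressing miR-21, were treated with titrations (up to about 40uM final) for 48 hours at 37 degree Celsius. Luciferase luminescence was read after lysis.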
Rango release inh: prevents RanGTP from dissociating the Rango-importin beta complex; Potency, µM (titrated, usually from 46.1 µM), without a hit: at the top dose activity change, negative = inhibition; hit rate 0.071% among 340,000; AID 540253; Biochemical FRET Rango-importin beta, RanGTP-induced dissociation; active means falling FRET ratio curve, often poorly fitted, with flat reads before Ran was added; inconclusive means other falling curves, or compound fluorescence or quenching; inactive means flat or rising ratio curve;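 note: potency is the fitted concentration of half-maximal effect; % of control where 0% means no effect; nearly all actives have a fitted effect of over 45% in size; -100% = wells without RanGTP and RCC1; the record marks most hits as doubtful in a second field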
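Recombinant Rango FRET biosensor (EYFP–snurportin 1 IBB–cerulean CFP10) at 0.1 uM premixed with 0.25 uM importin beta in PBS, 1 mM DTT, 0.02% Tween-20, 0.1% BSA. Compound added 5 min; RanGTP-RCC1 (0.6 uM Ran, 2 mM GTP, 0.2 uM RCC1) then triggers release, read at 45 min.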
GLA inh pH 4.5: blocks human alpha-galactosidase A at pH 4.5; P06280; purified enzyme, 4-MU-alpha-Gal fluorescence, pH 4.5; activity change, negative = inhibition, % at 105 µM; 230,000 tested, under 10 active; inconclusive = small, poorly fitted or top-dose-only inhibition, or a rising curve; inactive = flat fitted curve, though single readings scatter; no compound was filed as active;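 note: 0% = full activity with enzyme and -100% = basal without enzyme; dose as in the result columns while the protocol names 77 µM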
Rango-impB inh: Rango-importin beta binding inhibition. Q14974. Rango CFP/YFP FRET sensor + importin beta, 45 min. Potency, µM (doses to about 92.2 µM), for inactives: at the top dose inhibition of complex formation. hit rate 0.031% among 340,000. AID 540263; active = rising FRET ratio curve, often small or poorly fitted; inconclusive = mostly compound fluorescence or quenching in the first reads; inactive = flat curves in all reads;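 note: potency is the fitted concentration of half-maximal effect; 0% = DMSO wells and 100% = buffer wells lacking importin beta; nearly all actives have a fitted effect of over 15% in size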
Target sequence (Q14974 whole entry, looked up): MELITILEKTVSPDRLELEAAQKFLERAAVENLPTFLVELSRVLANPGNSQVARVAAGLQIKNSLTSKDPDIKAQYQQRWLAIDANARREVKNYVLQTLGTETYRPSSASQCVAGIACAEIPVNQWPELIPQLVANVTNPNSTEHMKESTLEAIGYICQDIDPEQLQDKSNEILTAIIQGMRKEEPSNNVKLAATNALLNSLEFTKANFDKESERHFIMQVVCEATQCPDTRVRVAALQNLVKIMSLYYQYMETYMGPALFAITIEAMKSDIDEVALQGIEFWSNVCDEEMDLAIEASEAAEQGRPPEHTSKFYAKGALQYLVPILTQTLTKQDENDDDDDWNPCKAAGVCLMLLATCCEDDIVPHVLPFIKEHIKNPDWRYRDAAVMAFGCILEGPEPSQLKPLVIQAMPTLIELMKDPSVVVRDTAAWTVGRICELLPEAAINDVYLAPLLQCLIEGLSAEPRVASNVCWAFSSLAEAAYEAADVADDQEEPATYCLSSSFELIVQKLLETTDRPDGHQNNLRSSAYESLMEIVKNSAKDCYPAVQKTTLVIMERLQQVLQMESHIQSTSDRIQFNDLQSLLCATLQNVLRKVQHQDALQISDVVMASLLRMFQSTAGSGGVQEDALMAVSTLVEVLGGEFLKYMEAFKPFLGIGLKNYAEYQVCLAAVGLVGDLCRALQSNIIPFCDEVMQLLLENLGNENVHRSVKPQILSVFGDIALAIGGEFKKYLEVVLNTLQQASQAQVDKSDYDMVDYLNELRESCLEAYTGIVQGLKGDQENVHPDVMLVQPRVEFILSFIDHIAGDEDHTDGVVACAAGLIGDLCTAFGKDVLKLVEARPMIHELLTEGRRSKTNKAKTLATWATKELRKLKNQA
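FRET biosensor Rango (snurportin 1 IBB between N-terminal EYFP and C-terminal Cerulean), 50 nM in PBS/1 mM DTT/0.02% Tween-20/0.1% BSA, preincubated 5 min RT with compound; 0.125 microM importin beta added, 45 min RT, CFP/YFP FRET ratio read.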
* hit, by the source's call; ? = inconclusive; . = not tested or not shown; & = joins results of further samples.

Values in the order: miR-21 FLuc | Rango release inh | GLA inh pH 4.5 | Rango-impB inh
- Cc1cc(Nc2ccc([N+](=O)[O-])cc2)c2ccccc2n1
    -18.0% | -11.0% | . | 4.3%
- Cc1ccc(C)n1N1C(=O)/C(=C\c2ccc(Cl)cc2)SC1=S
    -6.1% | -0.8% | 6.0 | -2.1%
- CCc1sc(N2C(=O)C3C4CCC(C4=C(C)C)C3C2=O)nc1-c1ccccc1 (centres undefined)
    0.5% | 23.4% | 2.1 | -0.3%
- N#Cc1cc2c(nc1SCC(=O)O)CCCCC2
    -3.1% | -5.6% | -3.1 | -0.1%
- COc1ccc(-n2ncc3c(NCCCN4CCOCC4)ncnc32)cc1
    -57.5% | 21.6% | -6.3 | 19.7%
- COc1ccc(N=Nc2c(C)[nH]c3ccccc23)cc1
    . | -21.3% | . | ?
- CC(C)OCCCNC(=O)c1cc2c(s1)CS(=O)(=O)C2
    -7.2% | 14.4% | -0.4 | 6.6%
- Cc1cc(C)c2nc(N3CCN(C(=O)c4ccco4)CC3)sc2c1
    . | -5.5% | . | 0.4%
- CC1CCN(C(=O)c2[nH]cnc2C(=O)N2CCN(C(=O)OC(C)(C)C)CC2)CC1
    . | 6.7% | . | ?
- Cc1sc(N)nc1-c1cccs1
    -14.4% | 9.0% | 2.1 | -2.5%
- CCc1nnc(NC(=O)c2cc(S(=O)(=O)N3CCOCC3)ccc2N2CCCCC2)s1
    -8.8% | 8.6% | 6.7 | 1.1%
- CCN(CC)c1ccc(NC(=O)COC(=O)COc2ccccc2[N+](=O)[O-])cc1
    -0.5% | 6.9% | 9.4 | 0.3%
- CCOC(=O)C(=O)NC1CC=CCC1c1ccc2c(c1)OCO2 (centres undefined)
    . | -3.4% | . | -2.0%
- COc1ccc(NC(=S)Nc2ccc(C)c(S(=O)(=O)N3CCCCC3)c2)cc1
    17.9% | . | -5.5 | .
- COCCCNC(=O)/C(C#N)=C/c1c(N2CCN(c3ccc(OC)cc3)CC2)nc2c(C)cccn2c1=O
    0.0% | 4.61µM* | . | ?
- O=C(OCc1cc([N+](=O)[O-])cc2c1OCOC2)c1ccccn1
    -3.2% | -19.6% | 8.1 | -4.1%
- CC1CCCN(C(=O)C2CCN(S(=O)(=O)c3ccc4c(c3)CC(C)N4C(=O)C3CC3)CC2)C1 (centres undefined)
    1.2% | -5.1% | . | ?
- COc1nc(Nc2ccc(C(C)C)cc2)nc(OC)n1
    -48.1% | -14.8% | -1.4 | 1.0%
- CCCCCN(C(=O)CCC(=O)OCC(=O)N1CCC(C)CC1)c1c(N)n(CCCC)c(=O)[nH]c1=O
    . | -9.5% | . | 4.0%
- COc1ccc(CNc2ncc(-c3ccc(F)cc3)n2C)cc1OC
    4.3% | 0.8% | . | 2.1%
- CCn1c(COc2cccc(OC)c2)nnc1SCC(=O)Nc1ccccc1C(=O)OC
    8.3% | 29.6% | 4.2 | -1.9%
- Cc1ccccc1C(=O)N1N=C(c2cccc(NS(C)(=O)=O)c2)CC1c1cccs1 (centres undefined)
    -3.0% | ? | . | -0.2%
- O=C(c1cccs1)N1CCCC(c2nc3c(nnn3Cc3ccccc3Cl)c(=O)[nH]2)C1 (centres undefined)
    -10.1% | -0.2% | . | 3.5%
- Cc1ccc(C(=O)c2c(NC(=O)c3cccnc3)sc3c2CCCC3)cc1
    -8.8% | -8.2% | -4.2 | 0.2%
- CCCn1c(=N)c(C(=O)NCC2CCCO2)cc2c(=O)n3cccc(C)c3nc21 (centres undefined)
    -0.8% | ? | 11.5 | ?
- Cc1ccc2nc(C)/c(=N\O)c(C)nc2c1
    -25.9% | -8.1% | 10.1 | 0.1%
- C/C=C1\C(OC2OC(CO)C(O)C(O)C2O)OC=C(C(=O)OC)C1CC(=O)OCC1C(C)C(OC(=O)CC2C(C(=O)OC)=COC(OC3OC(CO)C(O)C(O)C3O)/C2=C\C)CC1C(CO)CO (centres undefined)
    -4.3% | -13.5% | 4.4 | -1.5%
- Cc1cccc(-n2ncc3c(NCc4ccccn4)ncnc32)c1
    -52.5% | 27.1% | -10.6 | 0.2%
- CCOc1cccc2sc(=NC(=O)c3ccc(S(=O)(=O)N4CCOCC4)cc3)n(C)c12
    1.3%&-1.2% | -6.6% | -3.4 | 0.0%
- CCC(CC)C(=O)c1c[nH]c(C(=O)N2CCN(c3ccccc3F)CC2)c1
    -4.9% | 8.5% | -6.9 | -0.7%

A run of entries from the list above, for reference:
Values in the order: miR-21 FLuc | Rango release inh | GLA inh pH 4.5 | Rango-impB inh
- Cc1ccc2nc(C)/c(=N\O)c(C)nc2c1
    -25.9% | -8.1% | 10.1 | 0.1%
- C/C=C1\C(OC2OC(CO)C(O)C(O)C2O)OC=C(C(=O)OC)C1CC(=O)OCC1C(C)C(OC(=O)CC2C(C(=O)OC)=COC(OC3OC(CO)C(O)C(O)C3O)/C2=C\C)CC1C(CO)CO (centres undefined)
    -4.3% | -13.5% | 4.4 | -1.5%

(continued)
Values in the order: miR-21 FLuc | Rango release inh | GLA inh pH 4.5 | Rango-impB inh
- CN(C)CCC(=O)N1C/C(=C/c2ccccc2)C(=O)/C(=C\c2ccccc2)C1
    . | -4.7% | . | 4.2%
- O=C(CC12CC3CC(CC(C3)C1)C2)NC(=S)N1CCCCC1
    1.4% | -10.9% | 0.6 | -2.7%
- CC(=O)Nc1ccc(N2N=C(C)C(N=Nc3ccccc3)C2=O)cc1 (centres undefined)
    -30.9% | -0.2% | -2.8 | 3.9%
- CCN1CCN(CCCNC(=O)CCCn2nc(C)c3sc4ccccc4c3c2=O)CC1
    -4.7% | 1.0% | . | -2.4%
- O=C(/C=C/c1ccc([N+](=O)[O-])s1)N1CCN(c2ccccc2)CC1
    -2.2% | -30.2% | . | ?
- O=C(c1ccccc1)c1nccc2ccccc12
    -11.8% | -0.5% | 0.4 | 5.0%
- COc1cccc(/C=N/Nc2ncnc(N)c2[N+](=O)[O-])c1OC
    -42.1% | 17.6% | 3.5 | 1.7%
- O=C(Nc1ccc(N2CCOCC2)cc1)C1CCCN(S(=O)(=O)c2cccc(C(F)(F)F)c2)C1 (centres undefined)
    -2.6% | 7.9% | -2.7 | 0.6%
- CCOc1ccccc1N1CCN(Cc2cnc(-c3ccccc3)[nH]2)CC1
    8.3% | 0.5% | 0.8 | 4.2%
- O=C(NCC1CCCO1)c1ccc(N2CCCCC2)nc1 (centres undefined)
    -41.1% | 1.0% | -7.6 | 1.9%
- CN(CC(=O)Nc1ccc(Cl)c(C(F)(F)F)c1)C(=O)C1CC(=O)N(CCc2ccccc2)C1 (centres undefined)
    . | -9.0% | . | -1.1%
- O=S(=O)(Nc1ccccn1)c1ccc(-n2cccn2)cc1
    -2.7% | -12.1% | . | 0.1%
- O=C(OCC(=O)N1CCN(c2ccccc2)CC1)c1ccc(Cl)cc1[N+](=O)[O-]
    . | 3.3% | . | 1.0%
- Cc1cccc(-c2noc(CN(C)S(=O)(=O)c3cc(Cl)ccc3Cl)n2)c1
    -22.9% | -3.5% | -8.2 | -3.3%
- N#Cc1c(C(F)(F)F)cc(-c2ccc(Cl)cc2)nc1SCC(=O)O
    -0.7% | -9.0% | -15.7 | -0.4%
- O=C(COc1ccc2c(-c3ccccc3)cc(=O)oc2c1)N[C@H](Cc1c[nH]c2ccccc12)C(=O)O
    -5.0% | ? | . | -0.8%
- COc1ccc(C2C(C(=O)c3ccco3)=C(O)C(=O)N2CC2CCCO2)cc1OC (centres undefined)
    1.7% | 5.5% | . | -1.4%
- N/C(=N\OC(=O)c1cc(Br)ccc1Cl)c1ccccn1
    -36.6% | 1.5% | 0.0 | -0.6%
- CCSc1nc2c(c(=O)[nH]1)C(c1cccs1)C(C(=O)OC)=C(C)N2 (centres undefined)
    -2.2% | 33.3% | 9.0 | -0.4%
- COc1cccc(OC)c1C(=O)Nc1cc2c(cc1N1CCOCC1)n(C)c(=O)n2C
    -23.8% | -0.5% | . | ?
- O=S(=O)(Nc1cccnc1)c1ccc(F)cc1
    10.4% | -13.7% | . | -0.5%
- CSc1ccc(/C=C(/NC(=O)c2ccccc2)C(=O)N2CCN(C)CC2)cc1
    -1.4% | 9.3% | -5.2 | 0.0%
- C[C@H](NC(=O)C1CC(=O)N(c2ccc3c(c2)OCO3)C1)C(=O)NC1CCCC1 (some centres undefined)
    -4.6% | 4.3% | . | -0.3%
- CCc1ccc(NC(=O)c2cccc(C(=O)Nc3ccc(CC)cc3)n2)cc1
    1.6% | 4.7% | . | -1.9%
- C/[N+]([O-])=C\c1ccc([N+](=O)[O-])o1
    1.3% | -16.4% | 0.1 | -3.6%
- Cc1c(C(=O)Nc2c(C)n(C)n(-c3ccccc3)c2=O)oc2ccccc12
    -10.3% | 17.3% | -18.1 | ?
- Cc1ccc2[nH]c3c(c2c1)CCCC3=O
    -29.6% | -1.1% | -6.0 | 6.8%
- O=S(=O)(NCc1cn2ccsc2n1)c1ccc(Oc2ccccc2)cc1
    12.1% | -13.1% | 5.3 | -0.8%
- Cc1ccc(S(=O)(=O)NNC2=NCCCCC2)cc1
    -3.4% | -11.3% | 2.6 | 1.5%
- CN(C)S(=O)(=O)c1ccc(C(=O)OCC(=O)N2CC3(C)CC2CC(C)(C)C3)cc1 (centres undefined)
    . | 14.5% | . | 1.4%
- Cc1nc(CN2CCN(C(=O)c3ccc(Br)cc3)CC2)cs1
    -1.3% | -13.5% | -10.1 | 2.7%
- Cc1ccccc1NC(=O)NCc1ccc2c(c1)OCO2
    -23.4% | 14.9% | 0.4 | 4.1%
- NC(=O)[C@@H]1CCCNc2c(I)cc([N+](=O)[O-])cc2C(=O)N[C@@H](CO)C(=O)NCC(=O)N1
    -3.4% | 1.2% | -12.6 | 6.4%
- O=C(COC(=O)/C=C/c1ccc(F)cc1)Nc1ccc(Cl)cn1
    -0.5% | 9.3% | -3.1 | ?
- COc1ccc(CCN(C)C(=O)COc2cccc(-n3cnnn3)c2)cc1OC
    . | -3.3% | . | -2.5%
- O=C(NC1CCNCC1)C1CC1
    1.5% | 15.5% | -1.1 | 0.6%
- OCCSc1nc(-c2cccnc2)nc2ccccc12
    -0.9% | -0.2% | 7.7 | 0.9%
- Cc1ccc2c(c1)-c1c(cnn1CC(=O)O)CO2
    -1.7% | -15.4% | -28.1 | -2.4%
- CCn1cc(C(=O)O)c(=O)c2cc(F)c(N3CCN(C(=S)NC(=O)c4ccccc4)CC3)cc21
    -1.1% | -16.3% | 0.0 | 4.0%
- CC(=O)Oc1cccc(-c2nc3ccccc3c(=O)o2)c1
    4.3% | -14.7% | -13.7 | 0.8%
- COc1cccc(NC(=O)COC(=O)c2ccccc2C(=O)N2CCN(c3ccccc3)CC2)c1
    16.9% | 17.9% | -8.2 | 2.8%
- COc1ccc(-c2ccc(C(c3c(C)[nH][nH]c3=O)c3c(C)[nH][nH]c3=O)o2)c([N+](=O)[O-])c1
    -2.4% | -1.4% | -2.1 | 5.1%
- Cc1cc(N2CCN(Cc3ccc4c(c3)OCO4)CC2)n2ncnc2n1
    -4.9% | 2.7% | -1.7 | 0.0%
- CCOCCCNC(=O)c1c[nH]c2cc(C)ccc2c1=O
    -10.4% | -5.5% | 0.9 | 1.0%
- O=C(O)CC1(CC(=O)Nc2ccc3c(c2)C(=O)OC3)CCCCC1
    -4.5% | 10.2% | -5.7 | -2.5%
- COc1ccc(CNC(=O)c2ccc(CS(=O)(=O)c3ccccc3C)o2)cc1
    -0.2% | 3.1% | . | 0.1%
- CCOc1ccc(N(CC(=O)Nc2c(C)n(C)n(-c3ccccc3)c2=O)S(=O)(=O)c2ccc(F)cc2)cc1
    -0.7% | -1.5% | . | 0.9%
- COC(=O)Cn1ncc2c(C)n(Cc3ccccc3)c(C)c2c1=O
    -30.6% | 0.4% | 0.5 | -3.6%
- CN(CC(=O)NC(=O)NCc1ccccc1)Cc1cccc(Cl)c1Cl
    -7.9% | -4.2% | -8.8 | 4.5%
- COc1ccc(NC(=O)CSCC(=O)NCCc2ccccn2)cc1
    -4.3% | -22.2% | 4.7 | -3.1%
- Cc1ccccc1NC(=O)COC(=O)c1ccc(S(=O)(=O)N2CCCCCC2)cc1
    . | 2.8% | . | -4.5%
- COc1ccc(NC(=O)CN2CCN(CC#N)CC2)cc1
    -0.1% | 26.6% | . | 3.6%

This is a subset. The share of hits here may be higher or lower than overall.
